# From PubChem BioAssay
# FGF22 binding: shifts melting point of recombinant human FGF22; recombinant FGF22 thermal shift, SYPRO orange fluorescence; percent of sucrose octasulfate shift, DMSO zero; calls only at 9.99 µM; 340,000 compounds, 1.5% hits; AID 651658;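 active means melting point raised past a set limit in the mean and every replicate; three in four hits are not shown here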
# Target sequence (Q9HCT0 whole entry, looked up): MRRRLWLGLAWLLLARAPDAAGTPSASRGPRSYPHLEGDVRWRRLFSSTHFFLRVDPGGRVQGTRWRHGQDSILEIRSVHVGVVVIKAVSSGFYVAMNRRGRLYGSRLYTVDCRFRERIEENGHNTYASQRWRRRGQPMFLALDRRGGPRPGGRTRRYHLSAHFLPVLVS
# ALR inh: human ALR oxidase inhibition via reduced H2O2. P55789. purified ALR, DTT oxidation, H2O2 HRP-luminol luminescence. inhibition, % (test concentration not listed). 290,000 compounds, 3.8% hits. AID 485317;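 active means mean and each replicate at 75% or more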;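 further: stock transfer was 7.5 nL into about 7.5 µL; 0% = neutral wells and 100% = wells with inactivated enzyme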
# Target sequence (P55789 whole entry, looked up): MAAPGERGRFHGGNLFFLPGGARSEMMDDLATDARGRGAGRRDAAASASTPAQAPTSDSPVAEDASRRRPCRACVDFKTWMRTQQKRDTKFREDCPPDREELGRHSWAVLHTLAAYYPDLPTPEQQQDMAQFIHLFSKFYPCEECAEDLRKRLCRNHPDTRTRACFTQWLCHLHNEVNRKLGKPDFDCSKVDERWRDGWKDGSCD
# UCH37 DUB inh: inhibitors of human deubiquitinating enzyme UCH37; 330,000 compounds, 0.33% hits; Q9Y5K5; inhibition, % (concentration not given with the values); purified proteasome/UCH37, Ub-AMC cleavage fluorescence;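 active means mean of two replicates above 20%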;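 further: 0% = compound-free wells with enzyme and 100% = wells lacking proteasome; stock transfer was 100 nL into about 20 µL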
# Target sequence (Q9Y5K5 whole entry, looked up): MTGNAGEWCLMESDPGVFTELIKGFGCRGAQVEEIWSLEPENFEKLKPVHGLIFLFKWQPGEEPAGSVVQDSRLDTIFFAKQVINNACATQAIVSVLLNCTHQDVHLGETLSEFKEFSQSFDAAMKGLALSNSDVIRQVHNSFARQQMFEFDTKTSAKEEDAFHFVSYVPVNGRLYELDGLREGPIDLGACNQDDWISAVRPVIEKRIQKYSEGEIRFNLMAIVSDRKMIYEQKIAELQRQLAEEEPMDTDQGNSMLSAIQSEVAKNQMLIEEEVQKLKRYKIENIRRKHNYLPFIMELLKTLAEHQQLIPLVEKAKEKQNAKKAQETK
#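 Test system – human UCH37 enzyme supplied as purified proteasome complex · Incubation – 30 min preincubation with enzyme, 25 min cleavage at room temperature · Detection – AMC fluorescence from Ub-AMC cleavage, excitation 355 nm, emission 460 nm · Benchmarks – no-proteasome wells (full inhibition) and compound-free wells (no inhibition)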
# E coli growth: inhibitors of Escherichia coli growth; OD600, 23 h; hits give low values; 330,000 compounds, 0.21% hits; OD600 absorbance (concentration not given with the values); AID 1053175;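 active means OD600 absorbance below the run mean of sample wells minus 3.6 SD, in any replicate, cut at about 0.56 in these data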;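 further: stock transfer was 300 nL into about 60 µL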
# rRNA inh HTS: inhibits bacterial ribosomal RNA function over humanized ribosomes; AID 720706; GFP signal change (wild-type ribosome), % (test concentration not listed); E. coli WT GFP vs humanized-ribosome RFP mutants, fluorescence, 24 h; hits give low values; DMSO median 0, no signal -100; 350,000 compounds, 1.6% hits;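 active means significant combined selectivity score with lowered wild-type GFP, culture density cut under 30%, mutant RFP and density less affected; inactive means any of these conditions unmet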; further: one replicate is shown; some compounds called inactive have numbers as strong as hits
# rRNA inh HTS OD600: further read-out of rRNA inh HTS, marked with its call; OD600 change, %; measured here: OD600 growth;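 optical density of the mix in the first replicate; 0 = DMSO median and -100 = no signal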
# rRNA inh HTS RFP: recorded beside rRNA inh HTS, whose call it bears; RFP signal change, %; measured here: RFP humanized mutant strains;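 first replicate; 0 = DMSO median and -100 = no signal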
# * = called active by the depositor; i = inactive; / = no result given.
SMILES,FGF22 binding,ALR inh,UCH37 DUB inh,E coli growth,rRNA inh HTS,others
CC(C)NC(=O)NCC[C@H]1CC[C@@H](NC(=O)CCN2CCCCC2)[C@@H](CO)O1,i,/,/,/,-1,rRNA inh HTS OD600=-2;rRNA inh HTS RFP=0.0
CO[C@H]1CC[C@H]2CCOc3c(C#N)cccc3C(=O)N(C)C[C@H](c3ccccc3)CC(=O)N(C)C[C@H]1O2,i,/,/,/,4,rRNA inh HTS OD600=0;rRNA inh HTS RFP=4.1
C[C@H](CO)N1C[C@H](C)[C@H](CN(C)Cc2ccc(C(F)(F)F)cc2)Oc2c(NS(C)(=O)=O)cccc2C1=O,i,/,/,/,1,rRNA inh HTS OD600=2;rRNA inh HTS RFP=-0.9
O=C(CN1CCOCC1)N[C@@H]1CC[C@H](CCn2cc(C3CCCCC3)nn2)O[C@@H]1CO,i,/,/,/,1,rRNA inh HTS OD600=-1;rRNA inh HTS RFP=-0.9
C[C@@H]1CN([C@@H](C)CO)C(=O)c2cc(NS(=O)(=O)c3cn(C)cn3)ccc2O[C@@H](C)CCCCO[C@H]1CN(C)C(=O)Nc1ccc(F)cc1,i,/,/,/,0,rRNA inh HTS OD600=3;rRNA inh HTS RFP=0.4
CC(=O)N(C)C[C@@H]1Oc2cc(C#Cc3ccccn3)ccc2S(=O)(=O)N([C@H](C)CO)C[C@@H]1C,i,/,/,/,2,rRNA inh HTS OD600=7;rRNA inh HTS RFP=-1.2
O=C(C[C@@H]1CC[C@H]2[C@@H](COC[C@@H](O)CN2S(=O)(=O)c2cccc(F)c2)O1)Nc1ccc(-c2ccccc2)cc1,i,/,/,/,-33,rRNA inh HTS OD600=-67;rRNA inh HTS RFP=11
O=C([C@@H]1[C@@H](CO)[C@@H]2Cn3c(ccc(C4=CCCCC4)c3=O)[C@H]1N2Cc1nccs1)N1CCOCC1,i,/,/,/,3,rRNA inh HTS OD600=-1;rRNA inh HTS RFP=0.4
CC(=O)Nc1ccc2c(c1)C(=O)N(C)[C@@H]1CC[C@@H](CC(=O)NCc3ccc4c(c3)OCO4)O[C@H]1CO2,i,/,/,/,2,rRNA inh HTS OD600=-3;rRNA inh HTS RFP=-0.7
CO[C@H]1CN(C)C(=O)c2ccc(NC(C)=O)cc2OC[C@H](C)N(C(=O)c2ccccn2)C[C@@H]1C,i,/,/,/,3,rRNA inh HTS OD600=4;rRNA inh HTS RFP=-1.2
Cc1cc(=O)oc2cc(NC(=O)c3cc4ccccc4o3)ccc12,/,-7,/,0.72,/,
CCOc1ccc(-c2nc(-c3ccccc3C)no2)cc1,/,12,/,0.71,/,
COc1ccc(-c2nn(CC(=O)N3CCCCC3)c(=O)c3ccccc23)cc1,/,-2,/,0.72,/,
O=C(CNC(=O)c1ccc2c(c1)OCCO2)NN=Cc1ccc([N+](=O)[O-])cc1,/,/,3.5,0.7,/,
O=S(=O)(N=C(Sc1ccc(Cl)cc1)c1ccccc1)c1ccccc1,/,/,2.2,0.63,/,
C(=NN1CCN(C2c3ccccc3-c3ccccc32)CC1)c1ccccn1,/,/,4.5,0.69,/,
Clc1ccc2c(NN=Cc3ccc(Br)cc3)ccnc2c1,/,/,-3.7,0.57,/,
CN=c1scc(-c2ccccc2F)n1N=Cc1ccc[nH]1,/,/,4.5,0.66,/,
COc1ccccc1NS(=O)(=O)c1ccc(NN=Cc2ccccc2OCC(=O)O)c([N+](=O)[O-])c1,/,/,14,0.66,/,
Cc1ccccc1CN1C(=O)CSC1=NN=Cc1ccco1,/,/,5.3,0.65,/,
COC(=O)c1sc(NN=Cc2ccc(C(C)C)cc2)nc1C,/,/,-25,0.69,/,
Cc1ccc(S(=O)(=O)NN=Cc2ccccc2OCc2ccccc2)cc1,/,/,1.4,0.71,/,
COCCN=c1scc(-c2ccco2)n1N=Cc1ccc(O)c(O)c1O,/,/,5.6,0.73,/,
CCOP(=O)(c1ccccc1)c1nc(-c2ccccc2C)oc1N1CCCCC1 (stereo not drawn),/,/,-16,0.72,/,
CN(C)C=NC(=S)Nc1ccccc1Cl,/,/,5.3,0.7,/,
NC(=O)NN=Cc1coc2ccc3ccccc3c2c1=O,/,/,6.3,0.69,/,
O=c1[nH]c2cc(Br)cnc2nc1C=C(O)c1ccc(F)cc1,/,/,7.7,0.68,/,
O=C(CNc1ccc2ccccc2c1)NN=Cc1ccncc1,/,/,4.2,0.65,/,
COC(=O)NN=C(C)c1ccc(OC(F)F)cc1,/,/,5.7,0.68,/,
COc1ccccc1/C=C/C=Nn1c(-c2ccccc2)n[nH]c1=S,/,/,3.5,0.65,/,
Cc1cc(C)n(N=Cc2ccc(O)cc2)c(=O)c1C#N,/,/,10,0.67,/,
CN(C)S(=O)(=O)c1ccc(C(=O)NCC(=O)NN=Cc2cccs2)cc1,/,/,-0.5,0.69,/,
O=C(NCCCN1CCOCC1)C(=O)NN=Cc1c2ccccc2cc2ccccc12,/,/,1.5,0.66,/,
CCOc1ccc(C=NNc2ccc(C(F)(F)F)cc2[N+](=O)[O-])cc1O,/,/,9.3,0.76,/,
Cn1cccc1C=NNC(=O)Cc1ccc(Br)c2ccccc12,/,/,-0.6,0.7,/,
O=C(O)COc1ccccc1C=NNC(=O)CSc1nc2ccccc2s1,/,/,6.7,0.69,/,
CCC(CC)=NN=Cc1c(O)n(CC)c2cc(C3=NNC(=O)CC3)ccc12,/,/,4.8,0.78,/,
Cc1c(C=NNC(=O)C2COc3ccccc3O2)c2ccccc2n1C (stereo not drawn),/,/,6.9,0.68,/,
O=C(NN=Cc1ccc2cccnc2c1)c1nc2ccccc2c(=O)[nH]1,/,/,-63,0.64,/,
Cc1ccc(C(=O)NN=C2CCSC2)cc1[N+](=O)[O-],/,/,5.2,0.64,/,
Cc1nnc(NN=Cc2ccco2)n1N,/,/,6.3,0.74,/,
COc1ccccc1C=NNC(=O)c1ccc(-c2ccccc2)cc1,/,/,5.6,0.67,/,
S=c1[nH]nc(COc2ccccc2)n1N=Cc1ccc(Cl)c(Cl)c1,/,/,1.4,0.68,/,
C(=Nn1cnnc1)c1ccc(OC2CSC2)cc1,/,/,9.3,0.69,/,
C=C(C)C1CC=C(C)C(=NNC(=S)Nc2ccc(C)cc2)C1 (stereo not drawn),/,/,2.4,0.75,/,
COC(=O)c1ccc(C=NNC(=O)C(=O)N2CCCCCC2)cc1,/,/,1.8,0.7,/,
CC(=NNC(=O)c1ccccc1O)C1C(=O)c2ccccc2C1=O,/,/,21*,0.67,/,
COc1cc(C=NN(C)C)ccc1OC(=O)c1cccs1,/,/,1.0,0.7,/,
COc1ccc(OC)c(C=NNC(=O)c2c(C)nc3cc(C)ccn23)c1,/,/,-380,0.66,/,
COc1ccc(-c2nn(-c3ccccc3)cc2C=NNc2ccc3ccccc3n2)cc1OC,/,/,-80,0.69,/,
COc1ccc(C=NNC(=O)c2cc(O)c(O)c(O)c2)cc1Cn1cc([N+](=O)[O-])cn1,/,/,9.8,0.69,/,
Cc1ccccc1-n1c(C)cc(C=NNC(=O)c2ccncc2)c1C,/,/,8.2,0.65,/,
COc1ccc(C=NNC(=O)c2ccccc2)cc1COc1ccccc1,/,/,2.9,0.72,/,
O=[N+]([O-])c1ccc(NN=C2CC3CC=CC23)cc1 (stereo not drawn),/,/,5.2,0.63,/,
CC(=NNc1nncc2ccccc12)c1ccc(O)cc1,/,/,1.8,0.71,/,
CCCC=NNC(=O)CNC(=O)c1ccccc1Cl,/,/,3.4,0.67,/,
CC(CC(=O)Nc1cccc2c1CCCC2)=NNC=O,/,/,1.4,0.66,/,
O=C(O)c1csc(NN=Cc2ccc(Br)cc2)n1,/,/,2.8,0.68,/,
CC(CC(=O)Nc1c(C)cc(C)cc1C)=NNC(=O)c1cnccn1,/,/,0.8,0.68,/,
N#Cc1c(N=Cc2ccco2)sc2c1CCCCC2,/,/,3.8,0.72,/,

# Compounds above that have an NH in an aromatic ring (five):
SMILES,FGF22 binding,ALR inh,UCH37 DUB inh,E coli growth,rRNA inh HTS,others
CN=c1scc(-c2ccccc2F)n1N=Cc1ccc[nH]1,/,/,4.5,0.66,/,
O=c1[nH]c2cc(Br)cnc2nc1C=C(O)c1ccc(F)cc1,/,/,7.7,0.68,/,
COc1ccccc1/C=C/C=Nn1c(-c2ccccc2)n[nH]c1=S,/,/,3.5,0.65,/,
O=C(NN=Cc1ccc2cccnc2c1)c1nc2ccccc2c(=O)[nH]1,/,/,-63,0.64,/,
S=c1[nH]nc(COc2ccccc2)n1N=Cc1ccc(Cl)c(Cl)c1,/,/,1.4,0.68,/,

# Next section.
SMILES,FGF22 binding,ALR inh,UCH37 DUB inh,E coli growth,rRNA inh HTS,others
Oc1c(Br)cc(C=NNC(=S)NCC2CCCO2)cc1Br (stereo not drawn),/,/,-32,0.71,/,
O=C(NCCc1ccccc1)c1ccnc(C=NO)c1,/,/,4.8,0.68,/,
Cc1ccccc1NC(=O)CCC(=O)NN=Cc1ccncc1,/,/,-2.8,0.7,/,
CC(=NN=C(N)SC1CC(=O)N(c2cccc(Cl)c2)C1=O)c1cccs1 (stereo not drawn),/,/,3.8,0.69,/,
CC(=NNC(=O)CNC(=O)C1COc2ccccc2O1)c1cccc(O)c1 (stereo not drawn),/,/,2.7,0.63,/,
O=c1nc2n(c3c1oc1ccccc13)Cc1ccccc1-2,/,/,-20,0.57,/,
Cn1cccc1CC(=O)NN=C/C=C/c1ccco1,/,/,6.0,0.72,/,
CCCCCn1nc(C)c(C=NNC(=O)c2ccoc2C)c1C,/,/,5.1,0.66,/,
C=C(C)C=NNC(=S)Nc1ccc(S(=O)(=O)N2CCOCC2)cc1,/,/,0.8,0.67,/,
Cc1ccc(N(CC(=O)NN=Cc2cccnc2)S(=O)(=O)c2ccccc2)cc1,/,/,0.8,0.66,/,
COc1cc(C=NNC(=O)CCOc2ccccc2C)cc(Br)c1O,/,/,-34,0.64,/,
COc1cccc(C=NNC(=O)CNC(=O)c2cccnc2)c1O,/,/,-0.1,0.65,/,
Cc1nc(N)sc1C(=O)NN=Cc1cccnc1,/,/,7.9,0.64,/,
N#Cc1cccc2c1-c1ccccc1C2=NNC(N)=S,/,/,5.3,0.61,/,
CC(=NNC(=O)c1ccc(-n2cnnn2)cc1)c1ccc(Cl)cc1,/,/,0.4,0.7,/,
COc1ccc2c(c1)[nH]c1c(=O)n(N=CC3C(C)C=C(C)CC3C)c(=O)[nH]c12 (stereo not drawn),/,/,0.4,0.7,/,
CC(=NNC(=O)Cn1nc(C)c([N+](=O)[O-])c1C)c1ccc(Cl)s1,/,/,3.5,0.69,/,
COc1ccc2c(c1)c(C(=O)NN=Cc1ccccc1Cl)c(C)n2C,/,/,0.0,0.7,/,
Cc1cc(=O)[nH]c(NN=Cc2ccc(N(C)C)cc2)n1,/,/,-56,0.67,/,
CN(C)N=C/C=C1\CCC/C(=C/c2cccs2)C1=O,/,/,4.0,0.71,/,
N#CCCNN=C(Cc1nc2ccccc2[nH]1)c1cccc(Cl)c1,/,/,3.6,0.77,/,
O=C(CNC(=O)c1cccs1)NN=Cc1ccc(Cl)cc1,/,/,5.2,0.66,/,
O=C(NN=Cc1cc(Br)c(O)c([N+](=O)[O-])c1)C(O)(c1ccccc1)c1ccccc1,/,/,19,0.65,/,
COc1cccc(C(=O)NN=Cc2ccc(OC3CSC3)cc2)c1,/,/,1.3,0.71,/,

# Structures from the list above that have a CF3 group (two):
SMILES,FGF22 binding,ALR inh,UCH37 DUB inh,E coli growth,rRNA inh HTS,others
C[C@H](CO)N1C[C@H](C)[C@H](CN(C)Cc2ccc(C(F)(F)F)cc2)Oc2c(NS(C)(=O)=O)cccc2C1=O,i,/,/,/,1,rRNA inh HTS OD600=2;rRNA inh HTS RFP=-0.9
CCOc1ccc(C=NNc2ccc(C(F)(F)F)cc2[N+](=O)[O-])cc1O,/,/,9.3,0.76,/,

# (more compounds)
SMILES,FGF22 binding,ALR inh,UCH37 DUB inh,E coli growth,rRNA inh HTS,others
Cc1c(O)ccc(C(Cc2ccc3ccccc3n2)=NO)c1O,/,/,2.4,0.66,/,
O=C1C2C3C=CC(C4CC34)C2C(=O)N1N=Cc1ccc(-c2ccc([N+](=O)[O-])cc2)o1 (stereo not drawn),/,/,1.7,0.74,/,
Cc1ccc(C(=O)NN=Cc2cccc3ccccc23)cn1,/,/,6.3,0.63,/,
COc1ccc(C(=O)NN=Cc2ccoc2)cc1,/,/,1.7,0.67,/,

# Not all compounds are listed (hit frequency here may not be typical).
